# Sa RN4220 lethal: S. aureus RN4220 growth inhibition. OD600, 16 h. inhibition, % (no concentration beside the values). actives 0.33% (n = 330,000). AID 1259311;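 active = z-score of -3 or lower and OD600 up to 0.18 on both plates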;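 note: plate controls were untreated cells for no effect and reference antibiotic for full effect; stock transfer was 100 nL into about 80 µL; one replicate is shown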
# Sa ugtP lethal: growth inhibition of S. aureus ugtP deletion strain; actives 0.54% (n = 330,000); S. aureus RN4220 ugtP deletion, OD600 growth, 16 h; some inactives read as strong as hits; growth inhibition, % (test concentration not listed);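 active = z-score under -3 and OD600 up to 0.15 on both plates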;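 note: plate controls were untreated wells for no effect and antibiotic for full effect; wells of about 80 µL received 100 nL stock; the first replicate is given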
# Mtb hypoxia inh: Mtb hypoxia fluorescent reporter inhibition; M. tuberculosis hypoxia-regulated fluorescent reporter, fluorescence; AID 1159583; fluorescence inhibition, % (no concentration beside the values); actives 0.1% (n = 300,000);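 active = 35 to 45% if threefold the growth effect, above 45% if 1.5-fold the growth effect; inactive = the rest, general growth blockers included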;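 note: wells of about 50 µL received 100 nL stock; 0% = vehicle wells and 100% = reference inhibitor wells; whole bacteria with a GFP reporter of the hypoxia response; strong numbers were not always called active; many hits fall short of the cut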
# BJeLR viability: BJeLR cell viability loss; BJeLR (HRASV12) viability, CellTiter-Glo ATP luminescence, 48 h; reference of the scale not given here; inhibition, % (concentration not given with the values); actives 0.17% (n = 300,000);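 active = replicate mean above 50%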;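 note: 50 nL library stock added to about 25 µL; numbers are from one replicate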
# Bead autofluor: counter-screen for toxin protease inhibitors: compound fluorescence; actives 3.1% (n = 360,000); compound autofluorescence counterscreen, microsphere flow cytometry; stronger effect = higher value; fluorescence intensity (no concentration beside the values);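 active = at least 3 SD above the mean of all compounds, about 16000 in these data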;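 note: 100 nL of 1 mM stock went into each well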
# PrP 5UTR inh: inhibition of PrP 5' UTR reporter expression. cell-based PrP 5' UTR mRNA reporter, plate reader. inhibition, % (no concentration beside the values). actives 0.35% (n = 340,000);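 active = every replicate at 50% or more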;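 note: 0 = median of the neutral control wells; tested in H4 reporter cells; numbers are from one replicate; inactives centre near -14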
# Mtb hypoxia inh growth: second read-out of Mtb hypoxia inh, no call of its own (marks repeat the call); growth inhibition, %; measured here: M. tuberculosis growth (absorbance);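 0% = vehicle and 100% = reference antibiotic; read after six days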
# * marks the source's active call; other numbers are inactive results; / = not tested or not shown.
SMILES,Sa RN4220 lethal,Sa ugtP lethal,Mtb hypoxia inh,Mtb hypoxia inh growth,BJeLR viability,Bead autofluor,PrP 5UTR inh
Cn1c2ccccc2c2cnn(CC(=O)Nc3ccccc3Br)c(=O)c21,1.9,0.2,10.7,11.1,14.3,3623,-29.3
COCCCNC(=S)N1CCCN(c2nc3cc(C)c(C)cc3cc2C#N)CC1,11.0,0.9,25.0,11.6,8.3,5408,-1.7
O=[N+]([O-])c1ccc(Nc2nc(N/N=C/c3cccc(F)c3)nc(N3CCCC3)n2)cc1,/,/,/,/,5.8,2802,4.1
O=[N+]([O-])c1ccc(N/N=C/c2ccccc2O)cc1,/,/,/,/,-7.4,4097,-43.7
CC1=NN(C(=O)c2cc(C)nn2C)C(O)(C(F)(F)F)C1 (stereo not drawn),5.8,2.6,5.2,-0.7,2.1,2536,-36.4
Cc1cc(C)cc(NCc2cc(=O)oc3cc(C)c(O)cc23)c1,0.2,-8.4,-0.3,-5.8,7.3,3453,-17.1
Cc1nnc(-c2cnn(C)c2N)n1Cc1ccccc1,1.5,1.3,/,/,9.5,3944,-15.1
COc1ccc(Br)cc1C1N2CC3(C)CN1CC(C)(C2)C3=O (stereo not drawn),0.6,-1.2,6.4,6.9,6.8,3771,-15.0
Cc1cc(C(=O)NCc2cccnc2)cs1,-1.5,-1.5,-8.2,1.9,0.7,8285,-12.2
COC(=O)c1ccc(CN2C(=O)C(C)N(C(=O)c3c(F)cccc3F)c3ccccc32)cc1 (stereo not drawn),6.1,-5.3,-6.3,-2.0,16.6,3887,-18.1
CCSc1nc2c(c(=O)[nH]1)C(c1ccncc1)C(C(=O)OC(C)C)=C(C)N2 (stereo not drawn),4.6,-0.3,-1.6,8.9,-2.4,3868,-27.8
Cc1cccc(NC(=S)NCC2CCCO2)c1 (stereo not drawn),3.2,-6.7,/,/,3.0,2684,-12.8
COc1ccc2c(c1)C(=O)N(c1ccccc1)C(=O)C2,2.9,-2.1,9.9,9.4,-5.6,8982,3.8
CC(CC(=O)NCc1ccco1)=NNC(=O)COc1ccc(C)cc1,-3.1,3.9,-1.8,-14.9,/,/,/
CC(=O)N1N=C(c2cccc([N+](=O)[O-])c2)OC1c1ccc(Br)cc1 (stereo not drawn),3.8,6.1,6.5,11.6,1.7,4184,-10.3
O=C(c1ccc2c(c1)CCN2S(=O)(=O)c1ccccc1)N1CCN(c2ccccc2)CC1,0.6,-3.6,1.4,-1.8,10.6,6210,-10.0
Cn1c(=O)n(Cc2ccccc2)c2ccccc21,7.4,12.5,7.6,5.1,-9.5,10475,-22.3
COc1cc(OC)c(NC2c3ccccc3C(=O)N2c2cc(C)ccn2)cc1Cl (stereo not drawn),5.8,-2.3,-8.7,-3.9,9.4,5974,-32.9
Fc1ccc(-c2nnc(-c3ccc(F)cc3)o2)cc1,3.6,-13.1,7.2,17.9,7.8,3107,-76.1
COCCCNCCCOc1ccc(Cl)cc1C(C)(C)C,-8.2,-16.6,7.4,-4.0,9.2,2670,-6.9
Cc1ccc(NC2CCCCC2NS(=O)(=O)c2ccc(Cl)cc2)cc1 (stereo not drawn),-1.3,-6.3,-2.8,-1.4,3.3,2533,-12.8
O=C(c1ccco1)N(Cc1ccc2c(c1)OCO2)Cc1cc2cc3c(cc2[nH]c1=O)OCO3,-1.3,-9.7,-4.3,11.3,-10.7,3345,3.1
CC(CS(=O)(=O)c1ccccc1[N+](=O)[O-])N1CCOCC1 (stereo not drawn),7.7,6.9,15.5,7.4,-2.2,2607,-21.1
CCOC(=O)Cn1nc(-c2ccc(Cl)cc2)ccc1=O,-0.7,-9.7,-0.6,6.4,-0.7,10952,-24.1
CCCCN(C)Cc1c(C(=O)N2CCc3ccccc3C2)nc2ccc(Cl)cn12,-3.2,-8.0,-0.2,2.5,5.1,2857,-21.3
Cc1cc(/C=N/n2cnnc2)c(C)n1-c1ccc(OCc2ccc(F)cc2)cc1,/,/,/,/,13.4,7917,-29.8
CN(Cc1ccccc1)C(=S)Nc1ccc2nc3n(c(=O)c2c1)CCCCC3,6.2,6.8,4.2,4.3,-4.3,4399,-14.9
COCCCNC(=S)N(Cc1cccnc1)Cc1ccc(OC)c(OC)c1,1.0,2.6,-0.8,-2.5,6.1,2453,-11.1
Cc1ccc(CNC(=S)Nc2cc(C)ccc2OC(F)F)cc1,1.4,-5.2,6.0,-1.1,-0.7,3383,46.2
COC(=O)c1c(N=CN(C)C)c(C#N)c2n1CCCC2,8.5,-5.0,0.6,5.9,5.4,10605,-28.3
COc1cccc(NC(=S)NC(=O)c2cccnc2)c1,1.5,35.2,-1.9,6.0,0.8,3267,-24.7
Cc1nc(N2CCOCC2)nc(Oc2ccccc2)c1[N+](=O)[O-],3.4,11.7,2.2,7.3,8.0,3611,-17.3
COC(=O)c1c(-c2ccc(OC)cc2)sc2ccc(-c3ccc4c(c3)OCO4)cc12,1.1,5.7,2.3,3.5,/,4077,-14.4
CCO/N=C(\N)c1[nH]ncc1Br,/,/,/,/,-1.2,3717,-18.3
COc1cc(C(=O)OCC(=O)NCc2ccc(F)cc2)ccc1OCC(C)C,5.2,5.5,3.6,5.4,-2.0,5688,-11.3
Cc1ccc2[nH]c3c(N4CCN(Cc5ccc6c(c5)OCO6)CC4)ncnc3c2c1,16.5,78.9,-68.7,-7.2,/,/,/
C/C=C\C=C/C(=O)Nc1cccc(C2=NOC3(C2)C[C@@H](C(N)=O)N(C(=O)COc2ccc(Cl)cc2)C3)c1 (stereo partly drawn),/,/,/,/,-12.9,4091,-12.3
CC1CCN(c2ccc(NC(=O)C3CCCN3S(=O)(=O)c3ccc(F)cc3)cc2)CC1 (stereo not drawn),5.8,2.3,13.1,19.4,/,4249,-6.5
CC(C)CN(C(=O)COC(=O)c1nc(Cl)ccc1Cl)c1c(N)n(Cc2ccccc2)c(=O)[nH]c1=O,-0.7,5.4,3.0,6.8,-2.3,5678,-8.1
COc1cnn(-c2ccc(C)cc2)c(=O)c1Br,-0.5,7.1,11.2,0.5,6.1,4074,-21.2
CCOc1cccc(CN2CCCC(N3CCN(c4cccc(Cl)c4)CC3)C2)c1O (stereo not drawn),-1.7,-1.8,1.1,-3.0,-9.4,3225,-9.1
CN(C)C(=O)c1c(C(F)(F)F)nn(C)c1Cl,4.2,10.1,8.8,0.0,4.6,4459,-11.9
CCOC(=O)c1ccccc1OC(=O)NNc1ccccc1,5.1,-2.5,20.6,12.1,/,3636,-13.1
CC(C)[C@H](NC(N)=O)C(=O)Nc1cccc([N+](=O)[O-])c1,4.4,3.9,4.9,-0.8,2.3,4934,-7.5
COc1ccccc1CCNC(=O)C1CCC(=O)N(C2CCCCCC2)C1 (stereo not drawn),3.6,0.6,16.5,2.4,-2.8,8318,-27.4
COc1ccc(-c2c[n+]3c4n2CCCCC4=C(c2ccc(Br)cc2)C3)cc1,-1.9,-37.4,-9.9,8.8,-2.2,22490*,-4.7
CCN(CC)CCNC(=O)c1ccc(Cl)c(S(=O)(=O)N2CCCCCC2)c1,-1.7,3.6,/,/,-1.2,3030,-24.3
Cc1nn(CC(=O)NCCCN2CCOCC2)c(C)c1[N+](=O)[O-],7.3,-0.2,10.6,7.8,-2.4,9608,8.3
CCOC(=O)C1C2COc3ccc(C)cc3C2N2C(=O)c3cc(OC)c(OC)cc3NC(=O)[C@@]12C (stereo partly drawn),4.0,0.6,5.7,10.5,/,/,/
Clc1ccc2c(NN=Cc3ccc(Br)cc3)ccnc2c1,100.5*,100.7*,7.5,-5.0,/,/,/
C=CCN1C=C/C(=C\C=C(C#N)C#N)c2ccccc21,2.2,-5.4,19.9,6.5,27.1,2619,5.5
O=C(Nc1ccc(Cl)c(Cl)c1)ON=Cc1ccncc1,100.4*,100.5*,5.2,-0.3,/,/,/
O=C1CN(CC(=O)NC(=O)NCc2ccccc2)CCN1,3.6,0.5,6.3,4.9,4.8,2028,-2.8
CC1(C)CC(O)C(C(O)c2cccc([N+](=O)[O-])c2)C(C)(C)N1 (stereo not drawn),2.0,0.1,/,/,-17.1,2007,-1.2
COc1cc2c(C#N)c(N3CCN(C)CC3)nc(N)c2c(N)n1,2.1,1.0,-5.4,-6.0,-0.8,9711,-2.3
CSc1nnc(CNC(=O)C23CC4CC(CC(C4)C2)C3)n1Cc1ccccc1,14.0,-7.5,8.6,5.8,-9.6,2385,-21.4
CCCCOc1ccc(C(NC(=O)OCC)NC(=O)OCC)cc1,4.1,6.6,10.7,4.9,-3.6,2431,-15.6
COc1cc2nc(CN3CCC(Cc4ccccc4)CC3)[nH]c(=O)c2cc1OC,3.8,10.0,-0.6,6.8,-0.7,5394,-27.6
CCn1cc(/C=C(\NC(=O)c2ccccc2F)C(=O)N2CCOCC2)c2ccccc21,1.0,-8.1,4.3,-3.2,-4.7,5397,-62.4
Cc1onc(-c2ccc(Cl)cc2)c1-c1ccnn1S(=O)(=O)c1cccc(C(F)(F)F)c1,-12.0,2.5,4.7,2.5,12.8,/,-17.6

# Ordered by molar mass (high to low): 11 of the compounds above.
SMILES,Sa RN4220 lethal,Sa ugtP lethal,Mtb hypoxia inh,Mtb hypoxia inh growth,BJeLR viability,Bead autofluor,PrP 5UTR inh
Cc1onc(-c2ccc(Cl)cc2)c1-c1ccnn1S(=O)(=O)c1cccc(C(F)(F)F)c1,-12.0,2.5,4.7,2.5,12.8,/,-17.6
CCOc1cccc(CN2CCCC(N3CCN(c4cccc(Cl)c4)CC3)C2)c1O (stereo not drawn),-1.7,-1.8,1.1,-3.0,-9.4,3225,-9.1
COc1ccc(-c2c[n+]3c4n2CCCCC4=C(c2ccc(Br)cc2)C3)cc1,-1.9,-37.4,-9.9,8.8,-2.2,22490*,-4.7
CCn1cc(/C=C(\NC(=O)c2ccccc2F)C(=O)N2CCOCC2)c2ccccc21,1.0,-8.1,4.3,-3.2,-4.7,5397,-62.4
CCN(CC)CCNC(=O)c1ccc(Cl)c(S(=O)(=O)N2CCCCCC2)c1,-1.7,3.6,/,/,-1.2,3030,-24.3
COc1cc2nc(CN3CCC(Cc4ccccc4)CC3)[nH]c(=O)c2cc1OC,3.8,10.0,-0.6,6.8,-0.7,5394,-27.6
CCCCOc1ccc(C(NC(=O)OCC)NC(=O)OCC)cc1,4.1,6.6,10.7,4.9,-3.6,2431,-15.6
Cc1nn(CC(=O)NCCCN2CCOCC2)c(C)c1[N+](=O)[O-],7.3,-0.2,10.6,7.8,-2.4,9608,8.3
CC1(C)CC(O)C(C(O)c2cccc([N+](=O)[O-])c2)C(C)(C)N1 (stereo not drawn),2.0,0.1,/,/,-17.1,2007,-1.2
O=C1CN(CC(=O)NC(=O)NCc2ccccc2)CCN1,3.6,0.5,6.3,4.9,4.8,2028,-2.8
CC(C)[C@H](NC(N)=O)C(=O)Nc1cccc([N+](=O)[O-])c1,4.4,3.9,4.9,-0.8,2.3,4934,-7.5

# Following part.
SMILES,Sa RN4220 lethal,Sa ugtP lethal,Mtb hypoxia inh,Mtb hypoxia inh growth,BJeLR viability,Bead autofluor,PrP 5UTR inh
O=C(c1ccccc1F)N1CCCC(C(=O)N2CCc3ccccc3C2)C1 (stereo not drawn),6.2,5.4,-4.3,-2.6,7.7,6208,-18.9
COc1ccc(CNC(=O)COC(=O)c2nc3nc(C)cc(C)n3n2)cc1,1.6,1.6,6.4,2.0,/,3970,-18.2
COc1cccc(Oc2cc(NN3CCCCC3)c([N+](=O)[O-])cc2[N+](=O)[O-])c1OC,3.8,0.6,2.0,6.3,11.1,3774,-16.9
O=C(/C=C/c1ccccc1)NCCSCc1ccccc1Cl,/,/,/,/,-6.9,3195,-9.1
O=C(Cn1nnc(-c2ccc(OCc3ccccc3F)cc2)n1)N1CCOCC1,-2.1,-3.9,-6.2,-1.3,-0.3,22617*,-6.7
O=C(COc1ccc2ccccc2c1)NN=Cc1ccccn1,7.6,-10.7,-0.3,3.9,/,/,/
COc1ccc(CC(=O)NNc2ncnc3c2cnn3-c2ccc(C)cc2)cc1OC,2.6,-0.3,5.3,3.6,3.4,2113,-24.6

# Bioassay records (PubChem BioAssay)

# Compounds as they come. About 4% of those tested had a hit in this group.
